High-throughput results (PubChem BioAssay)
PrP 5UTR inh – inhibition of PrP 5' UTR reporter expression. cell-based PrP 5' UTR mRNA reporter, plate reader. inhibition, % (concentration not given with the values). 0.35% of 340,000 active;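 active means every replicate at 50% or more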;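 further: 0 = median of the neutral control wells; tested in H4 reporter cells; numbers are from one replicate; inactives centre near -14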
RN4220 kill – growth inhibition of S. aureus RN4220, primary screen, OD600 | 16 h | inhibition, % (concentration not given with the values) | 0.33% of 330,000 active | AID 1259311, 2017;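 active means z-score of -3 or lower and OD600 up to 0.18 on both plates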;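 further: plate controls were untreated cells for no effect and reference antibiotic for full effect; stock transfer was 100 nL into about 80 µL; one replicate is shown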
ugtP null kill – growth inhibition of ugtP-null S. aureus, primary screen, RN4220 ugtP deletion, OD600; 16 h; some inactives read as strong as hits; growth inhibition, % (test concentration not listed); 0.54% of 330,000 active; AID 1259309, 2017;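 active means z-score under -3 and OD600 up to 0.15 on both plates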;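 further: plate controls were untreated wells for no effect and antibiotic for full effect; wells of about 80 µL received 100 nL stock; the first replicate is given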
Bead autofluor – compound fluorescence in toxin protease inhibitor counterscreen. AID 624483. fluorescence intensity (test concentration not listed). compound autofluorescence counterscreen, microsphere flow cytometry; active compounds read high. 3.1% of 360,000 active;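 active means at least 3 SD above the mean of all compounds, about 16000 in these data; inconclusive means too few beads counted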;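 further: 100 nL of 1 mM stock went into each well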
Mtb hypoxia rep – PubChem AID 1159583 | M. tuberculosis hypoxia-regulated fluorescent reporter, fluorescence | fluorescence inhibition, % (concentration not given with the values) | 0.1% of 300,000 active;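 active means 35 to 45% if threefold the growth effect, above 45% if 1.5-fold the growth effect; inactive means the rest, general growth blockers included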;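 further: wells of about 50 µL received 100 nL stock; 0% = vehicle wells and 100% = reference inhibitor wells; whole bacteria with a GFP reporter of the hypoxia response; strong numbers were not always called active; many hits fall short of the cut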
BJeLR viability – MLPCN primary cell-based screen for lethality selective to Ras in HRASV12 cells | inhibition, % (concentration not given with the values) | AID 1554, 2009 | 0.17% of 300,000 active | BJeLR (HRASV12) viability, CellTiter-Glo ATP luminescence, 48 h; reference of the scale not given here;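 active means replicate mean above 50%; inconclusive means above 50% but judged a plate artefact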;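 further: 50 nL library stock added to about 25 µL; numbers are from one replicate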
Mtb hypoxia rep growth – recorded beside Mtb hypoxia rep, whose call it bears; growth inhibition, %; measured here: M. tuberculosis growth (absorbance);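 0% = vehicle and 100% = reference antibiotic; read after six days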
Starred values were filed as active, the others as inactive; ? = inconclusive; . = not tested or not shown; & = joins results of further samples.

Molecule,PrP 5UTR inh,RN4220 kill,ugtP null kill,Bead autofluor,Mtb hypoxia rep,Mtb hypoxia rep growth,BJeLR viability
CCOC(=O)C1=C(C)NC(C)=C(C(=O)OCC)C1c1ccc(C)o1,-12,-2.2,-5,6532,2,-3,-3
Cc1cc(C)n2nc(C(=O)OCC(=O)c3ccccc3)nc2n1,-6,-5.6,-6,2758,-10,2,.
Cc1ccccc1NC(=S)N1CCCN(Cc2ccc(F)cc2)C1,-14,0.5,3,3736,13,2,-3
Cc1cc(C)c(S(=O)(=O)NCc2nc3nc(C)cc(C)n3n2)c(C)c1,-9,2.5,0,5939,3,4,1
Cc1cccc2sc(NNC(=O)c3ccc(S(=O)(=O)N4CC(C)CC(C)C4)cc3)nc12 (stereo unspecified),30,14,-3,4257,4,4,19
C=CCSC1=Nc2sccc2C2=NC(=O)CN12,-36,0.3,6,2995,.,.,-9
CCCn1c(=O)c(C(=O)NNC(=O)c2ccccc2[N+](=O)[O-])c(O)c2ccccc21,-11,.,.,5828,.,.,-2
Cc1c(Cl)c([N+](=O)[O-])nn1Cc1ccc(C(=O)N/N=C\c2cc(Cl)ccc2O)o1,33,.,.,2723,.,.,25
O=C(Nc1ccc(O)cc1)c1cccc(Oc2ccc([N+](=O)[O-])cc2)c1,-6,-2.7,23,3863,-2,1,2
Cc1ccc(C(=O)NCC(=O)OCC(=O)c2ccc3c(c2)OCCO3)cc1C,-6,1.7,2,4063,.,.,8
CSc1ccc(CN2CCC(CO)(Cc3ccc(Cl)cc3)CC2)cc1,-3,-2.5,0,4388,17,1,-7
CC[C@]12CCCN3CCc4c(n(c5ccccc45)C(=O)C1)C32 (stereo partly specified),.,11&7.8,2&4,.,10&1,8&8,-2
COc1ccc(/C=C2\SC(=S)N(CCCC(=O)NNC(=O)c3ccccc3O)C2=O)cc1,60*,.,.,4058,.,.,1
O=C(Cc1ccc(Br)cc1)N1CCN(Cc2ccccc2)CC1,-3,2.7,8,3333,.,.,-1
O=C(CN1CC(c2ccccc2)CC1=O)Nc1ccc2c(c1)OCO2 (stereo unspecified),4,-1.7,-1,4322,.,.,-7
CCCOC(=O)c1[nH]c2c(c1C)C(=O)CC(c1cccs1)C2 (stereo unspecified),60*,0.8,2,4164,-80,-17,36
CCCCn1c(N)c(N(CCOC)C(=O)c2c(-c3ccccc3)noc2C)c(=O)[nH]c1=O,-21,2.5,0,?,2,-3,7
Cc1ccc(S(=O)(=O)N(C)C)cc1NC(=O)COC(=O)CNC(=O)C12CC3CC(CC(C3)C1)C2,-20,3.8,2,?,4,-8,-1
CCCCCCCCCC[N+](C)(C)CC/C=C1/c2ccccc2Sc2ccc(Cl)cc21,-22,.,.,3745,.,.,-12
COc1ccc(C(=O)Nc2ccc3c(c2)n(C)c(=O)n3C)cc1OC,-25,1.0,4,3336,-3,4,-1
CCOC(=O)c1oc2c(CN3CCN(C)CC3)c(O)ccc2c(=O)c1-c1ccc(Br)cc1,-6,2.9,3,1920,5,2,-3
NNC(=O)c1cnn(Cc2ccccc2)c1N,2,-5.2,-4,?,7,8,-8
COC(=O)C1=C(C(=O)c2ccccc2)C(c2ccc(O)c(OC)c2)n2nnnc2N1 (stereo unspecified),-23,-8.4,-2,2566,6,9,.
Cn1c(SCC(=O)c2ccc(F)cc2)nnc1-c1ccccn1,-40,1.9,4,3980,2,-7,1
O=[N+]([O-])c1cccc(/C([O-])=C(/C(=S)Nc2ccccc2F)[n+]2ccccc2)c1,-32,1.6,5,4563,-4,-4,-18
O=C(NCc1ccccn1)c1ccc(-c2ccccc2)cc1,-32,1.4,2,5539,6,1,7
O=C(Nc1c(C(=O)N2CCOCC2)cnn1-c1ccccc1)c1cccc(F)c1,-2,2.6,0,5946,-8,6,-3
COc1cccc(C(=O)NC2=NCCS2)c1OC,-39,1.5,2,19499*,7,5,0
N=C1C(c2nc(-c3ccc(Cl)cc3)cs2)=C(O)CN1NC(=O)c1ccc(O)cc1,-42,3.9,19,5318,-2,4,12
O=C(CCc1nc2ccccc2c(=O)[nH]1)Nc1nnc(SCc2ccccc2)s1,-20,8.0,1,7840,-1,0,1
Cc1cc(NC(=O)c2cc3ccccc3o2)cc(C)c1OCC(=O)N1CCOCC1,-27,3.3,-5,8944,-3,9,-5
CCCc1cc(=O)[nH]c2nnc(SCC(=O)Nc3nnc(SCC)s3)n12,-5,2.8,6,?,12,2,2
O=C(CSc1ccc(-c2ccco2)nn1)NCc1ccc(F)cc1,-26,5.9,11,6146,16,6,-1
Cc1nc(Nc2ccccc2)sc1C(=O)c1ccc(F)cc1,-22,-1.1,13,3744,9,8,2
Cc1ccc2nc(-c3ccccc3)cc(C(=O)N3CCc4ccccc4C3)c2c1,-14,-0.9,-10,23070*,-3,3,-5
O=C(/C=C\c1ccccc1)Nc1nccs1,-100,-0.9,-5,3926,2,4,5
Cc1ccc(-c2cc(C(=O)Nc3cc(C)ccc3C)[nH]n2)c(O)c1,-88,0.6,-8,3872,5,13,-3
CCc1cccc(C)c1NC(=O)c1cc(C)oc1C,-6,4.1,5,22641*,7,14,10
CCCCNC(=O)c1sc(=S)n2c1[nH]c(=O)c1ccccc12,-10,74,82*,3987,7,7,-7
S=C(NCc1ccccc1)C(=S)NCc1ccccc1,-1,-11,63,4012,.,.,.

Three entries out of the list, arranged by count of non-hydrogen atoms, smallest number first.
Molecule,PrP 5UTR inh,RN4220 kill,ugtP null kill,Bead autofluor,Mtb hypoxia rep,Mtb hypoxia rep growth,BJeLR viability
S=C(NCc1ccccc1)C(=S)NCc1ccccc1,-1,-11,63,4012,.,.,.
Cc1nc(Nc2ccccc2)sc1C(=O)c1ccc(F)cc1,-22,-1.1,13,3744,9,8,2
Cc1ccc(-c2cc(C(=O)Nc3cc(C)ccc3C)[nH]n2)c(O)c1,-88,0.6,-8,3872,5,13,-3

Next section
Molecule,PrP 5UTR inh,RN4220 kill,ugtP null kill,Bead autofluor,Mtb hypoxia rep,Mtb hypoxia rep growth,BJeLR viability
CC(C)OP(=O)(OC(C)C)C(Nc1ccccc1)c1ccc2c(c1)OCO2 (stereo unspecified),-42,2.1,4,2250,0,0,-9
CCOC(=O)c1ccc(NC(=O)N2CCc3ccccc3C2)cc1,-28,-0.5,-1,4131,8,0,-5
COc1ccc(C=NNC(=S)Nc2ccccc2)cc1,.,3.0,13,.,6,2,.
Cn1c(=O)c(C(=O)CN2CCN(S(=O)(=O)c3ccccc3)CC2)c(N)n(Cc2ccccc2)c1=O,-4,-0.6,-3,2038,-1,8,8
Cc1ccc(OCC(=O)Nn2cnc3ccccc32)cc1,-23,-3.2,-9,5096,-5,8,-3
Cc1cc(NC(=O)C(C)SCC(=O)OCc2ccc(Cl)cc2Cl)no1 (stereo unspecified),-6,0.0,-2,?,1,2,.
CCn1nnnc1SCC(=O)NC1CCCC1,-4,14,2,2770,-9,-3,1
C/C(=N\NC(=O)CN1CCOCC1)C(C)(C)C,-9,.,.,10524,.,.,0

Some of the entries above in another layout.
Values run as follows: PrP 5UTR inh, RN4220 kill, ugtP null kill, Bead autofluor, Mtb hypoxia rep, Mtb hypoxia rep growth, BJeLR viability
COc1ccc(C=NNC(=S)Nc2ccccc2)cc1
    ., 3.0, 13, ., 6, 2, .
CC(C)OP(=O)(OC(C)C)C(Nc1ccccc1)c1ccc2c(c1)OCO2 (stereo unspecified)
    -42, 2.1, 4, 2250, 0, 0, -9

(cont.)
Molecule,PrP 5UTR inh,RN4220 kill,ugtP null kill,Bead autofluor,Mtb hypoxia rep,Mtb hypoxia rep growth,BJeLR viability
O=C(c1ccccc1F)N1CCN(Cc2ccc3c(c2)OCO3)CC1,-4,3.1,16,4126,17,9,7
CC(C)CCn1c(Oc2ccc(Cl)cc2)nc2c1c(=O)n(C)c(=O)n2C,2,8.8,-16,2428,2,7,-6
O=c1[nH]c(CN2CCN(Cc3ccc4c(c3)OCO4)CC2)nc2ccccc12,0,1.5,5,2466,.,.,3
O=C(C[n+]1ccc2ccccc2c1)c1ccc(NC(=O)c2ccccc2)cc1,-12,0.6,-1,3436,-17,8,3
COc1cccc(C(=O)NCC(=O)N/N=C/c2c(C)[nH]c3ccccc23)c1,-1,.,.,5648,.,.,2
COc1cc(-c2nnc(SCC(=O)N3CCOCC3)o2)cc(OC)c1OC,-1,3.2,5,4259,3,-2,0
CC(C)(C)c1ccc(C(=O)NC2CCS(=O)(=O)C2)cc1 (stereo unspecified),-20,2.0,4,3579,-4,9,-9
Cc1ccccc1CS(=O)(=O)Cc1ccc(C(=O)NCc2ccccn2)o1,-7,3.3,7,2293,8,10,3
CCN(C(=O)CSc1nc2nc(C)cc(C)n2n1)c1cccc(C)c1,8,0.8,1,16126*,2,-6,-6
CCn1c(SCC(=O)N2CCCc3ccccc32)nnc1-c1ccco1,-2,-13,-1,3578,19,11,7
COc1ccc(CCNC(=O)CN2CCN(Cc3ccccc3F)C2=O)cc1OC,-17,7.6,6,4457,-9,8,-8
CCOc1ccc(S(=O)(=O)Nc2ccccc2C(=O)N(C)C2CCN(C)CC2)cc1,-17,1.8,1,3889,0,6,.
CCn1c(=O)c(C(=O)NCc2ccc(OC)c(OC)c2)c(O)c2ccccc21,-7,-0.2,12,2921,0,6,4
CN(C)c1ccc(NC(=O)Cc2ccccc2)c2ccccc12,8,-1.5,2,2974,9,3,2
Cc1ccc(CN(C)C(=O)c2cc(Br)c(Br)s2)o1,-8,8.1,17,4938,2,0,-8
CC(=O)c1cccc(NC(=O)NNC(=O)c2ccc(Cl)cc2Cl)c1,-11,6.3,6,4368,3,3,12
CCC(c1ccccc1)c1nc(-c2ccccn2)no1 (stereo unspecified),-14,6.8,5,2993,2,5,-6
COc1ccccc1NC(=O)NN1CCCCC1,-5,4.6,-2,5312,8,6,0
CCOC(=O)c1ccc(NS(=O)(=O)c2ccc(-c3coc(C)n3)cc2)cc1,-1,1.8,0,6939,0,-9,3
Cc1nnc(SCc2ccc(F)cc2)s1,-29,2.6,7,2649,.,.,-8
CCOC(=O)N1CCC(N2C(=O)c3ccc(C(=O)NCCC(C)C)cc3C2=O)CC1,-13,-3.6,12,3172,7,3,-6
COC(=O)c1ccc(CSc2nc(-c3ccccc3)cs2)o1,-36,11,31,12773,-3,3,-16
CC(C)c1ccc(NC2CCCN(C(=O)c3ccsc3)C2)cc1 (stereo unspecified),-1,2.7,2,5204,-5,5,-3
O=S1(=O)CCC(N2CCOCC2)C1 (stereo unspecified),-28,5.7,-12,23902*,-6,7,-3
CC(NCC(=O)Nc1ccccc1C(=O)NC1CC1)c1cccs1 (stereo unspecified),-17,-0.2,1,3650,11,1,.
O=C(Cn1cnc2ccccc21)NN=Cc1cccc([N+](=O)[O-])c1,.,10,8,.,-8,-4,.
COc1ccc(OC)c(S(=O)(=O)N(C)CC(=O)N2CCN(c3ccc(F)cc3)CC2)c1,-27,1.2,10,?,0,-6,-14
Cc1nc2ccccn2c1C(=O)NN=Cc1cc(C)n(-c2ccc(Br)cc2)c1C,.,0.9,12,.,5,15,.
O=c1c2ccccc2nnn1CSc1nnc2sc3ccccc3n12,.,5.6,6,.,2,10,8
COc1ccccc1-c1ccc(=O)n(CC(=O)NCC2CCCO2)n1 (stereo unspecified),-1,2.4,6,4373,-4,2,-24
Cc1ccc(C(=O)NNC(=O)CCC(=O)Nc2cc(C)on2)cc1,-33,1.4,5,2462,-4,-2,-3
COc1ccc(N(Cc2cc(=O)[nH]c3ccccc23)C(C)=O)cc1,-11,-0.7,3,3439,10,-3,-2
Cc1cccc(C)c1NC(=S)/C(=C(\[O-])c1cccs1)[n+]1ccccc1,-17,0.4,2,7643,9,5,-2
O=C(c1ccc(Cl)cc1Cl)C1(n2cncn2)Oc2ccccc2C1O (stereo unspecified),-12,8.9,-7,6849,13,2,4
Cc1ccc(S(=O)(=O)N(CCC(=O)O)Cc2ccc(Cl)cc2)cc1,-15,5.8,3,9982,1,6,3
O=S(=O)(c1cccs1)N1CCN(c2ccccc2F)CC1,-24,11,11,2973,6,-6,9
Cc1cc(C(=O)CSc2nnc(C3CC3)n2C2CC2)c(C)n1C(C)C,-3,2.0,-2,9159,-10,10,.
Cc1ccc(-n2cccc2/C=C2\C(=N)N3N=C(c4ccco4)SC3=NC2=O)cc1,-8,6.2,31,2721,1,6,.
